# Compound activity: PubChem, several laboratories
# Vif TR-FRET = HIV-1 Vif–A3G interaction blockers – biochemical, TR-FRET, GST-Vif 1-94, biotin-A3G peptide, dose response retest, primary screen (AID 1117319); TR-FRET GST-Vif / biotin-A3G peptide binding; higher % means a stronger effect; test concentration not given here; strong numbers were not always called active; inhibition, %; hits with a dose series show IC50 in µM; 260,000 compounds, 0.57% hits;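 active = above the screen mean plus three standard deviations and confirmed in dose response; inconclusive = results disagree or hit not tested in dose response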;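 note: Vif residues 1-94 fused to GST binding biotinylated APOBEC3G peptide 110-148; 0% = full assay without inhibitor and 100% = GST in place of GST-Vif; retest series ran down from 100 µM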
# FGF22 binding = FGF22 (human) thermal shift binding. calls only at 9.99 µM. 340,000 compounds, 1.5% hits. recombinant FGF22 thermal shift, SYPRO orange fluorescence; percent of sucrose octasulfate shift, DMSO zero;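 active = melting point raised past a set limit in the mean and every replicate; inconclusive = no clear call; three in four hits are not shown here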
# E coli growth = E. coli growth inhibition; Escherichia coli growth, OD600, 23 h; active compounds read low; OD600 absorbance (no concentration beside the values); 330,000 compounds, 0.21% hits;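 active = OD600 absorbance below the run mean of sample wells minus 3.6 SD, in any replicate, cut at about 0.56 in these data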;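 note: stock transfer was 300 nL into about 60 µL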
# MLL AF4-AF9 inh = MLL-AF4/AF9 protein interaction inhibition; P42568; AlphaScreen, biotin-AF4 peptide binding to FLAG-AF9; inhibition, % at 10 µM; 350,000 compounds, 0.47% hits;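 active = every replicate reaching a set inhibition limit, whatever the replicate mean, cut at about 25% in these data; inconclusive = mean inhibition reaches that limit but some replicates miss it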;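 note: 0% = plate neutral control median and 100% = total signal loss; the record names both 10 and 1 µM as test concentration; the first replicate is given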
# Target sequence (P42568 whole entry, looked up): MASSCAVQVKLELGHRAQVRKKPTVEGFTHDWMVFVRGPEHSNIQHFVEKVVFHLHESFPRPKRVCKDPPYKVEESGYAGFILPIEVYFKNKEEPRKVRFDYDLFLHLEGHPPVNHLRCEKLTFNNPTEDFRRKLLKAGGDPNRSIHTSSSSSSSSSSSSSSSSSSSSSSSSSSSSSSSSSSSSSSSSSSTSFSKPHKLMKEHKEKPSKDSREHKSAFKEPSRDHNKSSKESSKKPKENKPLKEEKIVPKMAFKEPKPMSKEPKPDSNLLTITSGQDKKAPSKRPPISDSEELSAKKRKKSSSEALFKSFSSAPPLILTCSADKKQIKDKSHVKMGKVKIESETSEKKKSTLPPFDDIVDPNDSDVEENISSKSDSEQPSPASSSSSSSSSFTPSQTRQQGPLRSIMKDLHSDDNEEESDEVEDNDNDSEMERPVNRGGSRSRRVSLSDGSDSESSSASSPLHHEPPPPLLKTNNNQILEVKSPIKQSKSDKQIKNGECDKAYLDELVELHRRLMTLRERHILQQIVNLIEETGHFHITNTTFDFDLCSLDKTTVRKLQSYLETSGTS
# UCH37 DUB inh = blocks the human deubiquitinase UCH37; Q9Y5K5; purified proteasome/UCH37, Ub-AMC cleavage fluorescence; inhibition, % (concentration not given with the values); 330,000 compounds, 0.33% hits; AID 588478;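 active = mean of two replicates above 20%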;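 note: 0% = compound-free wells with enzyme and 100% = wells lacking proteasome; stock transfer was 100 nL into about 20 µL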
#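 Assay system: Proteasome-bound UCH37. Buffer or medium: pH 7.4 Tris-HCl (50 mM) with ovalbumin, ATP-MgCl2, DTT. Incubation: 30 min preincubation with enzyme, 25 min cleavage at room temperature. Measured by: fluorescence, ex 355 nm, em 460 nm. Read-out basis: percent inhibition. Control set: wells without proteasome as full block, compound-free enzyme plus substrate as uninhibited.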
# RanGTP-Impb inh = inhibitors of RanGTP-importin-beta interaction, primary screen, biochemical, FRET, CFP-Ran, YFP-importin-beta, homogeneous; cell-free CFP-Ran/YFP-importin-beta FRET ratio; inhibition, % (test concentration not listed); 300,000 compounds, 1.1% hits; AID 2216;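 active = most replicates above 15%; inconclusive = exactly half above 15%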;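 note: 0% = DMSO wells and 100% = Ran loaded with GDP instead of GTP; wells of about 40 µL received 100 nL stock; the first replicate is given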
# HNF4A DNA FP = change in binding of human HNF4 alpha to DNA. P41235. 360,000 compounds, 0.3% hits. HNF4a-FITC DNA binding, fluorescence polarization, 1 h. AID 1224865. activity change, % at 10 µM; in the data active = activity change above about 30%, passing the limit was not always enough;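 note: controls were the assay level and a saturating level of protein; the project sought stronger binding though the title names inhibitors; some compounds called inactive have numbers as strong as hits; positive values seem to mean higher polarization but the record does not say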
# Target sequence (P41235 whole entry, looked up): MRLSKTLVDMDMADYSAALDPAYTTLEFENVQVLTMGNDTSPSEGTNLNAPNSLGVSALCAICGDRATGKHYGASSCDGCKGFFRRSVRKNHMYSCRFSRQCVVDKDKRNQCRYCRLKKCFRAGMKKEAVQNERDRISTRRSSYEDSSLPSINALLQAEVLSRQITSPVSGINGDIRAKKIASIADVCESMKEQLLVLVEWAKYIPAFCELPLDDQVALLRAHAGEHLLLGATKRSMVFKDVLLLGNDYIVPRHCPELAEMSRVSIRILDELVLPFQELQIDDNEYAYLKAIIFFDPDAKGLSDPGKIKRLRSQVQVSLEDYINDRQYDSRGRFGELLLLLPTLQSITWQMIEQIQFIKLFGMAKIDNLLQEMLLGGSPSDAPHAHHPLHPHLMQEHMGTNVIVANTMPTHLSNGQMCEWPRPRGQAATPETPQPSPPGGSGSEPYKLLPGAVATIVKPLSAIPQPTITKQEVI
# * hit, by the source's call; i = inactive; ? = inconclusive; . = not tested or not shown; & = joins results of further samples. Not all compounds are listed (hit frequency here may not be typical).
SMILES,Vif TR-FRET,FGF22 binding,E coli growth,MLL AF4-AF9 inh,UCH37 DUB inh,RanGTP-Impb inh,HNF4A DNA FP
O=C(c1noc2c1CCc1ccccc1-2)N1CCCc2ccccc21,-8.3%,.,0.646,.,2.3,1.2,-0.4
CN1C2C=C3C(C#N)=C(N)C(C#N)(C#N)[C@H](c4c(F)cccc4F)[C@H]3C1CC2 (stereo partly specified),7.0%,.,0.684,.,-21.2,8.8,3.7
Cc1nc2scc(-c3cccs3)c2c(=O)[nH]1,4.8%,.,0.702,.,3.1,-2.8,1.5
NC(=O)c1[nH]cnc1N=NN(CCO)Cc1ccccc1,-6.8%,i,.,-0.9,.,.,1.7
CNC(=O)NC(=O)CSc1nnc(-c2ccco2)n1-c1ccccc1,.,i,0.714,1.1,5.1,1.6,0.7
O=C(Nc1ccc(-c2nc3ccccc3o2)c(O)c1)c1cc(-n2cnnc2)ccc1Cl,-6.9%,.,0.702,.,-269.7,1.2,9.8
C/C(=N\NC(=O)C1CCCN(S(=O)(=O)c2ccccc2)C1)c1ccccn1 (stereo unspecified),26.8%,.,.,.,.,-0.5,1.5
COc1cc(CN(C2CC2)S(=O)(=O)c2ccccc2Br)cc(OC)c1,4.5%,i,0.683,-1.6,2.6,.,-2.6
COCCN1Cc2cccc(C(=O)Nc3cccc(-c4nc5ccccc5[nH]4)c3)c2C1=O,0.2%,i,0.686,?,-18.6,-3.1,-0.5
Cc1ccc(NC(=O)C2CCCN(C(=O)NCc3ccccc3)C2)c(C)c1 (stereo unspecified),.,i,0.676,0.5,0.4,1.2,4.2
CC[C@]12c3[nH]c4ccc(OC)cc4c3CCN1C(=O)C(CC(=O)NC(C)(C)C)C[C@@H]2C(=O)N1CCN(C(=O)c2ccco2)CC1 (stereo partly specified),-4.2%,i,0.694,3.1,-0.6,.,-0.6
COc1cccc(/C=C/C(=O)OCC(=O)N2CCCc3ccccc32)c1,-2.0%,i,0.683,-1.2,-13.0,3.3,-0.3
C/C(Cn1nc([N+](=O)[O-])cc1C)=N\NC(=O)c1cccc(Br)c1,0.6%,.,.,.,.,0.8,0.0
O=S(=O)(c1ccccc1)N1CC=C(c2ccccc2)CC1,.,i,0.684,-0.4,-1.1,0.6,-3.7
COc1ccc(C(=O)NCc2cc3ccccc3n2C)cc1,.,i,0.656,-1.7,0.4,4.1,-2.3
COc1ccc(CCn2c(C)nc3c(c(=O)c4ccccc4n3C)c2=O)cc1,-9.3%,.,0.649,7.0,4.7,-0.6,1.4
Cc1cc(C2C(=O)CC(=O)CC2c2ccccc2)on1 (stereo unspecified),21.2%,.,0.764,.,-0.3,3.4,-0.4
O=C(N/N=C/c1ccc(Br)cc1)c1ccc(NC(=O)c2ccccc2)cc1,.,i,.,-4.7,.,.,30.7
CCOC(=O)c1[nH]c(=S)[nH]c1C,4.8%,i,0.688,-1.7,2.4,.,1.3
Cn1c(=O)c(NCCc2ccccc2)c2c3c(cccc31)C(=O)c1ccccc1-2,1.0%&24.7%,.,0.717,.,3.7,i,-44.5
Cc1ccc(-c2nc(-c3ccccn3)no2)cc1[N+](=O)[O-],-1.9%,i,0.636,.,4.7,-2.9,0.9
CCN(CC)CCC(=O)N1C/C(=C/c2ccccc2)C(=O)/C(=C\c2ccccc2)C1,-0.4%,i,.,-2.3,.,.,0.3
O=C(CN1C(=O)COc2ccccc21)N1CCCc2ccccc21,-1.1%,i,0.646,3.0,-2.7,1.4,-2.1
COC(=O)c1ccc(CON2C(=O)c3ccccc3C2=O)cc1,3.9%,.,0.735,.,0.2,-2.1,-0.4
COCCNC(=O)c1cc(-c2ccccc2C)nn1CC1CC(c2cccnc2)=NO1 (stereo unspecified),.,i,0.702,1.2,-0.7,.,1.1
O=C(CN1C(=O)c2ccc([N+](=O)[O-])cc2C1=O)NC1CCS(=O)(=O)C1 (stereo unspecified),8.8%,i,0.651,5.8,1.6,0.0,3.7
Oc1ccccc1-c1nc(NC2CCCC2)c2ccccc2n1,-231.8%,i,0.674,3.3,5.6,0.3,1.9
Oc1ccc2ccccc2c1CNc1ccccn1,-9.3%,i,0.674,1.8,2.8,0.9,-3.3
CC1=C(C(=O)N(C)C)CC(CC(=O)NCCCN(C)C)C(=O)N1Cc1ccccc1 (stereo unspecified),-0.1%,i,.,2.0,.,.,-0.2
CSc1nnc(-c2sccc2OCc2ccccc2)n1C,6.7%,.,0.704,.,2.6,0.1,2.3
O=C(/C=C/c1cccs1)Nc1cccc(NC(=O)/C=C/c2cccs2)n1,13.7%,i,0.727,6.8,-17.5,3.7,12.4
CC(Sc1c[nH]c2ccccc12)C(=O)O (stereo unspecified),2.2%,.,0.696,.,-2.9,?,-1.5
COc1ccc(-c2nn(C)c(=O)[nH]2)cc1,-3.5%,i,0.693,.,4.4,3.3,1.3
NC(=O)NC(=O)CSc1nc2cc([N+](=O)[O-])ccc2n1-c1cccc(C(F)(F)F)c1,4.1%,i,0.672,1.0,3.3,-4.1,1.9
CCCn1c(SCCN2C(=O)c3ccccc3C2=O)n[nH]c1=O,0.8%,.,0.716,.,1.7,-0.7,1.2
CCCC1Cc2c(sc3nc(SC)nc(N)c23)CO1 (stereo unspecified),-14.9%,.,0.706,.,2.5,.,-2.1
CC(C)(C)NC(=O)Cn1c(=O)oc2ccc(Cl)cc21,23.6%,i,0.734,3.0,4.7,-0.8,-1.4
Cc1ccc(NC2SC(=O)N(Cc3cccc(C(=O)O)c3)C2=O)c(C)c1 (stereo unspecified),3.1%,i,0.703,-39.9,3.9,3.4,1.7
Cc1ccc(C(=O)CCC(=O)N2CCN(C/C=C/c3ccccc3)CC2)cc1,0.5%,i,.,1.5,.,.,6.0
O=C1C=C(c2ccc(C(=O)O)cc2)C[C@@H](c2ccc(Cl)cc2)C1,.,i,.,2.2,1.2,.,-0.1
COc1cccc(/C=N/n2c(C)nc3ccccc32)c1OC,14.8%,.,.,.,.,4.2,-0.2
CC1=C(C(=O)Nc2ccccn2)C(c2ccccc2)n2ncnc2N1 (stereo unspecified),6.3%,.,0.772,.,-1.1,-0.2,4.5
COc1ccc(-c2noc(-c3ccc(Br)o3)n2)cc1,7.8%,i,0.697,-0.9,3.5,-0.5,1.9
O=C(C[C@@H]1C[C@H]2c3cc(NC(=O)Nc4ccccc4F)ccc3O[C@H]2[C@H](CO)O1)NCC(F)(F)F,.,i,.,-0.3&0.0,.,.,2.3
COCCN1CC(C(=O)N2CCC(Oc3ccccc3OC)CC2)CCC1=O (stereo unspecified),3.9%,i,0.7,-0.9,2.3,2.7,0.2
CCc1noc(C)c1C(=O)OCC(=O)Nc1ccccc1SC,3.0%,i,0.676,-25.5,2.0,.,0.8
O=C(CN1CCC(NC(=O)c2ccc(Br)cc2)CC1)NCc1cccs1,-6.5%,i,0.707,-1.0,1.3,-2.3,-2.3
CCN(CC)c1nc(-c2ccc(C(=O)NN)cc2)nc(-c2ccc(C(=O)NN)cc2)n1,-6.6%,i,0.687,-1.1,1.9,2.9,-3.4
O=C(Nc1cc(S(=O)(=O)Nc2ccccc2Cl)ccc1O)c1cc2c(s1)CCCC2,-4.8%,i,0.679,-0.4,3.2,5.2,5.3
O=C(NCC(=O)N1CCCC(C(F)(F)F)C1)c1ccc(Oc2ccccc2)cc1 (stereo unspecified),.,i,0.685,-6.3,4.6,-3.8,6.7
C=CCNC(=O)c1ccc(OC)cc1OC,-1.2%,.,0.711,.,0.1,9.0,-2.0
O=S(=O)(c1ccccc1)N1c2cc(Cl)ccc2Oc2nc3ccccc3nc21,1.9%,.,0.767,.,-3.4,2.1,-0.2
O=C(OCc1c(-c2ccccc2)ncc2ccccc12)N1CCOCC1,.,i,0.71,-3.5,5.0,.,5.9
Cc1cc(C)cc(NS(=O)(=O)c2c(C)[nH]c(=O)[nH]c2=O)c1,1.5%,i,0.672,3.2,4.9,-1.7,0.6
CCOc1ccc(NC(=O)c2[nH]c(C)c(C(C)=O)c2C)cc1,.,i,0.659,-8.1,3.1,-0.7,-7.0
COCCNC(=O)C(c1ccc(C)cc1)N(CCOC)C(=O)CCC(=O)Nc1nccs1 (stereo unspecified),.,i,0.703,-0.5,1.3,2.5,4.3
CSc1ccc(C(=O)C2CCCN(C(=O)Cn3cnnn3)C2)cc1 (stereo unspecified),.,i,0.727,0.1,3.0,-1.4,0.9
CC(=O)Nc1ccc(S(=O)(=O)N2CCC(C(=O)NCCC(=O)Nc3ccccc3)CC2)cc1,.,i,0.687,-2.6,5.8,2.0,1.5
COc1ccc(NC(=O)c2cc(-c3ccccc3Cl)no2)cc1,30.3%,.,0.691,.,0.7,-3.1,-1.1
C[C@@H]1CN([C@H](C)CO)S(=O)(=O)c2ccc(Br)cc2O[C@H]1CN(C)C(=O)C1CCCCC1,-5.4%,i,.,0.1&0.0,.,.,-0.7

# 3 structures from above, arranged by SMILES length, low to high:
SMILES,Vif TR-FRET,FGF22 binding,E coli growth,MLL AF4-AF9 inh,UCH37 DUB inh,RanGTP-Impb inh,HNF4A DNA FP
CNC(=O)NC(=O)CSc1nnc(-c2ccco2)n1-c1ccccc1,.,i,0.714,1.1,5.1,1.6,0.7
COc1cccc(/C=C/C(=O)OCC(=O)N2CCCc3ccccc32)c1,-2.0%,i,0.683,-1.2,-13.0,3.3,-0.3
O=C(Nc1ccc(-c2nc3ccccc3o2)c(O)c1)c1cc(-n2cnnc2)ccc1Cl,-6.9%,.,0.702,.,-269.7,1.2,9.8

# (continued)
SMILES,Vif TR-FRET,FGF22 binding,E coli growth,MLL AF4-AF9 inh,UCH37 DUB inh,RanGTP-Impb inh,HNF4A DNA FP
Cc1ccccc1C(=O)NC(CC(C)C)C(=O)OCC(=O)c1c(N)n(C)c(=O)n(C)c1=O (stereo unspecified),-3.3%,i,0.693,-0.6,1.5,-6.2,-3.2
Cc1cccc(NC(=O)COC(=O)Cc2cccs2)c1C,1.3%,i,0.627,-11.3,-2.9,1.7,2.7
O=C(O)CCN1C(=O)CC(N2C(=O)/C(=C/c3ccc(Cl)cc3)SC2=S)C1=O (stereo unspecified),29.8%,i,0.713,0.2,12.4,3.7,-1.2
CN(c1ccccc1)S(=O)(=O)c1cccc(NC(=O)Cn2cnc3c2c(=O)n(C)c(=O)n3C)c1,26.4%,.,0.667,.,1.9,2.6,-0.8
O=C(NCc1cccs1)c1nc2ncccn2n1,-6.0%,.,0.698,.,1.3,-2.9,-0.7
O=C(O)CN1C(c2ccccc2O)Nc2ccc(Br)cc2C1c1ccccc1 (stereo unspecified),4.2%,i,.,0.7,2.5,1.3,2.0
O=C(NCc1ccccn1)c1ccc2c(c1)N(Cc1ccccc1)CCS2,-0.3%,i,0.711,.,-366.2,5.2,0.4
O=C(Nc1cccc(-n2cnnn2)c1)c1cc2ccccc2o1,.,i,0.657,-2.0,-0.2,2.1,1.4
CCCC/C(C)=N\NC(=O)CNS(=O)(=O)c1ccc([N+](=O)[O-])cc1,4.2%,.,.,.,.,0.7,2.4
COc1ccc2c(-c3ccccc3)cc(N3CCOCC3)nc2c1,0.3%&-0.3%,.,0.665,.,-10.7,0.5,-2.9
O=C(Cn1cnc2ccccc2c1=O)NCCCN1CCCC1=O,-11.8%,i,0.656,-6.4,1.3,.,-1.4
O=C(COc1ccc(F)cc1)Nc1nnc(C2CC2)s1,.,i,0.604,-14.8,1.1,.,-0.9
Cc1cccc(-n2nc3c(c2NC(=O)c2ccc(Br)o2)CSC3)c1C,0.7%,.,0.746,.,0.6,.,2.9
O=C(Cn1nnc(-c2cccc(C(F)(F)F)c2)n1)NC(=O)NCc1ccco1,-1.1%&25.1%,.,0.74,.,0.9,-2.5,-0.8
